Assay outcomes as filed in PubChem BioAssay.
VDR inh = inhibitors of human vitamin D receptor; Potency, µM, inactives show max response, negative = inhibition, actives largely listed as inhibitors; AID 504847; P11473; 0.93% of 400,000 active; VDR-SRC2-3 peptide fluorescence polarization, 2 h; active means well fitted inhibition curve with a large enough effect; inconclusive means small, poorly fitted or top-dose-only effect, or another doubt; inactive means no such curve, though single readings can be large or run the other way; further: series mostly up to about 120 µM
Target sequence (P11473 whole entry, looked up): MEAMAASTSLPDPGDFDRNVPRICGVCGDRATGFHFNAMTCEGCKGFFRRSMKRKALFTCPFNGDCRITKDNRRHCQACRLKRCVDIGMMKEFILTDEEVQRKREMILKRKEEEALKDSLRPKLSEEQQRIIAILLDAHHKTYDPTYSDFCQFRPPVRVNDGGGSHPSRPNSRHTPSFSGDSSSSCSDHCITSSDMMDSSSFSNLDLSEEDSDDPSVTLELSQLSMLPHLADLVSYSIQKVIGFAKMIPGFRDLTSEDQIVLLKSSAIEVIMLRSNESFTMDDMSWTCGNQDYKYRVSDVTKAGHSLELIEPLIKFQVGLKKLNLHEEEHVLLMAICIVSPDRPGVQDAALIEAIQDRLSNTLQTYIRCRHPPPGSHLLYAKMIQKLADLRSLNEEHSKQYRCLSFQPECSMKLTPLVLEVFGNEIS
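After 23 nl compound addition and a short centrifugation, plates sat for 2 hours at ambient temperature; polarization of fluorescence then indicated loss of VDR binding to peptide SRC2-3.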
* = called active by the depositor; & = joins results of further samples. On the % scale 0 is the no-effect control and ±100 the full control effect; potency means the concentration at half of the fitted maximal effect. Only part of the results is shown; rates above refer to the full screens.

`COc1ccc(C(=O)Nc2nc(-c3ccc([N+](=O)[O-])cc3)c(-c3ccccc3)s2)cc1` gave VDR inh -3%.
CCOc1ccc(NC(=O)CN(C)C(=O)CSC(C)C(=O)Nc2cc(C)on2)cc1OCC (stereo not drawn) was read as VDR inh -4%.
For COc1cccc(/C=N/NC(=O)CNC(=O)c2cccs2)c1O the results were VDR inh -9%.
`NNC(=O)c1cc(C23CC4CC(CC(C4)C2)C3)[nH]n1` gave VDR inh -20%.
`COc1ccc(-c2nn(-c3ccccc3)cc2C(=O)Nc2nc(CC(C)=O)ns2)cc1` gave VDR inh 10%.
For O=S(=O)(O)c1ccc2c(c1)-c1nc-2nc2[nH]c(nc3nc(nc4[nH]c(n1)c1ccc(S(=O)(=O)O)cc41)-c1ccc(S(=O)(=O)O)cc1-3)c1ccc(S(=O)(=O)O)cc21 the results were VDR inh 25µM*.
Screening CC1CC(C)(C)CC2(C1)NC(=O)N(CC(=O)Nc1c(F)cccc1F)C2=O (stereo not drawn) returned VDR inh -4%.
COc1cc2nc(N3CCN(C(=O)OCc4ccccc4)[C@H](C(=O)NC(C)(C)C)C3)nc(N)c2cc1OC was read as VDR inh 9%&2%.
Screening Cc1ccc(S(=O)(=O)N(C)c2c(C)ccc(S(=O)(=O)N3CCN(C=O)CC3)c2C)cc1 returned VDR inh -12%.
For Cc1ccc(N/C(N)=N/c2nc(CSc3ccccn3)cc(=O)[nH]2)c(C)c1 the results were VDR inh 9%.
For Cc1ccc(C)c(Cn2c(=O)c3c(nc4n3CCN4c3ccc(F)cc3)n(C)c2=O)c1 the results were VDR inh -9%.
`CC(C)C(=O)Nc1ccc2nn(-c3ccccc3)nc2c1` gave VDR inh -3%.
CCc1ccc(NC(=O)Cc2ccc(-n3cccc3)cc2)cc1 was read as VDR inh 2%.
For Cc1cc(CSc2ccccc2)ccc1NC(=O)c1ccc(C)c([N+](=O)[O-])c1 the results were VDR inh 0%.
Screening CC(=O)N1c2ccc(S(=O)(=O)N3CCCCCC3)cc2CC1C(=O)NCc1cccc(C)c1 (stereo not drawn) returned VDR inh 14%.
Screening CN1CCN(c2ncc3nc(-c4ccccc4)c(=O)n(CCc4ccccc4)c3n2)CC1 returned VDR inh -4%.
For O=C(NCC(c1ccco1)N1CCc2ccccc21)c1c(F)cccc1F (stereo not drawn) the results were VDR inh 6%.
For COC(=O)c1cccc(NC(=O)c2cccc([N+](=O)[O-])c2)c1 the results were VDR inh 8%.
`O=S(=O)(c1ccc(Cl)cc1)n1ccc(-c2cccc(OCc3c(F)cccc3Cl)c2)n1` gave VDR inh 3%.
`Cc1cc(C)c(NC(=O)c2ccccc2CCc2ccccc2)c(C)c1` gave VDR inh 1%.
For CC(C)CC(NC(=O)c1ccccc1)C(=O)OCC(=O)Nc1ccc(Br)cn1 (stereo not drawn) the results were VDR inh 18%.
`Cc1ccc(C)c(OCC(=O)Nc2ccc(S(=O)(=O)Nc3onc(C)c3C)cc2)c1C` gave VDR inh 2%.
Screening CC(=O)NC1CCCC(NC(C)=O)C1 (stereo not drawn) returned VDR inh -9%.
`CCOC(=O)c1c(-c2ccccc2)oc2cc(Br)c(OCc3ccccc3)cc12` gave VDR inh 8%.
Screening Cc1ccc(C(=O)n2nc(-c3ccco3)nc2N)cc1 returned VDR inh -18%.
Cc1oc(-c2ccccc2)cc1C(N)=O was read as VDR inh 2%.
Screening Cn1c(CCNS(=O)(=O)c2ccccc2)nnc1SCc1cccnc1 returned VDR inh 1%.
c1ccc(CNc2ncnc3nc(N4CCOCC4)[nH]c23)cc1 was read as VDR inh -13%.
Screening COc1ccc(S(=O)(=O)N2CCCCC2)cc1NC(=O)Cn1cnc2ccccc2c1=O returned VDR inh 2%.
Screening N/C(=N\OC(=O)CCC1CCCC1)c1ccccn1 returned VDR inh -12%.
`C[C@H](CO)N1C[C@H](C)[C@@H](CN(C)S(=O)(=O)c2cccs2)Oc2c(NC(=O)C3CCCCC3)cccc2C1=O` gave VDR inh 21%.
CCOC(=O)CSc1nc(N)c(C(=O)Nc2ccc(N(C)C)cc2)s1 was read as VDR inh 10%.
Screening Cc1n[nH]c(C)c1S(=O)(=O)NCCc1ccc(Cl)cc1 returned VDR inh 12%.
O=C(Nc1nccs1)c1ccc(-c2ccc(F)cc2)o1 was read as VDR inh 6%.
Screening O=C(c1cc2ccccc2oc1=O)N(c1ccc(Cl)cc1)C1C=CS(=O)(=O)C1 (stereo not drawn) returned VDR inh 13%.
COc1ccc(CCNC(=O)C(=O)c2cn(CC(=O)N3CCOCC3)c3ccccc23)cc1OC was read as VDR inh -4%.
For CCC(Oc1ccccc1)C(=O)OCC(=O)N(CC)c1c(N)n(Cc2ccccc2)c(=O)[nH]c1=O (stereo not drawn) the results were VDR inh -3%.
Screening CCC(=O)Nc1nnc(SCC(=O)Nc2ccc(F)cc2)s1 returned VDR inh 19%.
For CC(C)CNC(=O)CN(c1cccc(Cl)c1)S(C)(=O)=O the results were VDR inh 11%.
Cc1ccccc1CSc1nnc(-c2ccccc2)c(=O)[nH]1 was read as VDR inh 16%.

The final 2 records of the section before are carried over, then new ones follow:
For CC(C)CNC(=O)CN(c1cccc(Cl)c1)S(C)(=O)=O the results were VDR inh 11%.
Cc1ccccc1CSc1nnc(-c2ccccc2)c(=O)[nH]1 was read as VDR inh 16%.
Screening CC1CC(C)(C)N2C(=O)C(=C(C#N)C#N)c3cccc1c32 (stereo not drawn) returned VDR inh 5%.
`O=C(COc1nsnc1N1CCOCC1)N1CCOCC1` gave VDR inh -13%.
`COc1ccc(CCNC(=O)c2cc(-c3ccncc3)nc3c(Cl)cccc23)cc1OC` gave VDR inh -28%.
Screening Cc1cc(=O)oc2cc(OC(C)C(=O)NC3CCN(Cc4ccccc4)CC3)ccc12 (stereo not drawn) returned VDR inh 5%.
Screening CCC(Sc1nc(C)cc(C)n1)C(=O)Nc1cc(C)on1 (stereo not drawn) returned VDR inh 10%.
Screening CC1=NN(c2ccccc2)C(=O)/C1=C\c1sccc1C returned VDR inh inconclusive.
For Cc1cc(C)c(C(=O)C(C)OC(=O)Cn2cnc3c2c(=O)n(C)c(=O)n3C)cc1C (stereo not drawn) the results were VDR inh 5%.
For N#CCc1nc2n(n1)Cc1ccccc1-2 the results were VDR inh 17%.
For Cc1cc(C)cc(N(C(=O)c2csnn2)C(C(=O)NC2CCCC2)c2cccnc2)c1 (stereo not drawn) the results were VDR inh -12%.
COc1ccc(CNC(=O)COC(=O)CCOc2ccc(C)cc2)cc1 was read as VDR inh 6%.
Screening CCn1nc(C)c(CNC(=O)CCc2nnc(-c3ccc(C(C)=O)s3)o2)c1C returned VDR inh 6%.
CCCCNC(=O)c1ccc2c(=O)n(CCCOCC)c(=S)[nH]c2c1 was read as VDR inh 9%.
`Cc1cc2oc(=O)cc(CN(C)Cc3ccccc3Cl)c2cc1C` gave VDR inh 8%.
Screening Nn1c(SCC(=O)NC2CCCCCC2)nnc1C(F)(F)F returned VDR inh 6%.
For Cc1cc(NC(=O)Nc2ccc(Cl)cc2)n(-c2ccccc2)n1 the results were VDR inh -3%.
Screening CCOC(=O)c1c(C)[nH]c(C)c1C(=O)COC(=O)c1cccc(S(=O)(=O)N(CC)CC)c1 returned VDR inh 6%.
For CCc1ccccc1NC(=O)CSc1nnc2ccc3ccccc3n12 the results were VDR inh 9%.
Screening O=C(Nc1nccs1)c1ccc(COc2ccc(F)cc2)o1 returned VDR inh 14%.
Screening CC(C)COCC(O)CC(Cc1ccccc1)C(=O)NN (stereo not drawn) returned VDR inh 2%.
O=C(Cc1ccc(S(=O)(=O)N2CCOCC2)s1)Nc1ccccc1N1CCOCC1 was read as VDR inh -26%.
`O=[N+]([O-])c1cc(S(=O)(=O)N2CCOCC2)ccc1N1CCNCC1` gave VDR inh -12%.
For CN(C)c1ccc(N/C=C/C(=O)c2ccco2)cc1 the results were VDR inh 89µM*.
Screening CC(=O)Nc1cccc(-c2nn[nH]n2)c1 returned VDR inh 11%.
`Cc1oc2ncn(C)c(=O)c2c1C(=O)NCCCN1CCCC(C)C1` (stereo not drawn) gave VDR inh 5%.
For COc1cc(OC)c(NC(=O)C2CCCN(c3ncnc4c3nc3n4CCCCC3)C2)cc1Cl (stereo not drawn) the results were VDR inh 0%.
For O=C(NNC(=S)Nc1ccc(Cl)cc1Cl)c1ccncc1 the results were VDR inh inconclusive.
Screening O=C(NCCSSCCNC(=O)c1ccccc1)c1ccccc1 returned VDR inh inconclusive.
Screening COc1ccc(/C=C(\C#N)C(=O)c2cccn2C)cc1 returned VDR inh -8%.
CC(C)CCNC(=O)CCCn1c(=O)c2cccn2c2ccccc21 was read as VDR inh 2%.
O=S(=O)(Nc1cc(S(=O)(=O)N2CCOCC2)ccc1N1CCOCC1)c1ccc2c(c1)OCCO2 was read as VDR inh -6%.
Screening COc1cc2c(cc1OC)C(C(C(=O)N(CCc1ccc(OC)c(OC)c1OC)CCc1ccc(OC)c(OC)c1OC)c1ccccc1)=NCC2 (stereo not drawn) returned VDR inh 9%.
Screening O=C(CCCN1C(=O)S/C(=C\c2ccccc2)C1=O)NNC(=O)c1ccccc1O returned VDR inh 7%.
CCN1CCN(c2ncnc3c2cnn3-c2ccccc2)CC1 was read as VDR inh 1%.
For Cn1cc(C(=O)c2cccc(Cl)c2)cc1C#N the results were VDR inh 13%.
For Cc1ccc(C(C)NC(=S)NCc2ccc(F)cc2)cc1C (stereo not drawn) the results were VDR inh 9%.
COCCNc1ccc(-c2n[nH]c(=O)c3ccccc23)cc1[N+](=O)[O-] was read as VDR inh -12%.
CN(C)C(CNC(=O)c1cc(-c2ccco2)nc2ccccc12)c1ccccc1 (stereo not drawn) was read as VDR inh 19%.
`CC(C)c1c(O)nc(SCCOc2ccc(Cl)cc2)[nH]c1=O` gave VDR inh -5%.
For CCn1cc(C2=NOC(C(=O)Nc3ccccc3C(=O)OC)C2)c(C)n1 (stereo not drawn) the results were VDR inh -10%.
`Cc1ccc(C(=O)OC(C)C(=O)NC2CCCCC2)cc1S(=O)(=O)N1CCCCC1` (stereo not drawn) gave VDR inh -12%.
Screening CCCCn1c2ccccc2c2nnc(SCC(=O)Nc3ccc(NC(C)=O)cc3)nc21 returned VDR inh -18%.
For O=C(Nc1ccccc1)C(Cc1ccccc1)N1Cc2ccccc2C1=O (stereo not drawn) the results were VDR inh 10%.
CC(NS(=O)(=O)c1ccc(CCC(=O)NCc2ccco2)cc1)c1ccccc1 (stereo not drawn) was read as VDR inh inconclusive.
Screening O=C(COCc1cc(-c2ccco2)on1)NC1CCCCC1 returned VDR inh 11%.
`O=C(COC(=O)c1cc(S(=O)(=O)N2CCOCC2)ccc1Cl)Nc1ccc2c(c1)OCO2` gave VDR inh 12%.
CC(c1ccccc1)N(CC(=O)NC1CCCCC1)S(=O)(=O)c1cccc(C(F)(F)F)c1 (stereo not drawn) was read as VDR inh 3%.
Screening Cc1ccnc(NCc2cccc3ccccc23)c1 returned VDR inh 11%.
Screening Cc1cc(C)c2[nH]c(C(=O)N3CCC(n4nccc4NC(=O)C4CC4)CC3)c(C)c2c1 returned VDR inh 2%.
For CNCCNC[C@H](Cc1cccc2ccccc12)NCCc1ccccc1 the results were VDR inh 7%.
`CCOc1ccc(NC(=O)N[C@@H](Cc2ccccc2)C(=O)O)cc1` gave VDR inh 0%.
COc1ccc(OC)c2c1CC(C)(C)NC2=O was read as VDR inh -3%.
`COc1cc([N+](=O)[O-])ccc1NC(=O)Nc1ccc2c(c1)OCCO2` gave VDR inh 0%.
CCCc1nc2ccccc2c(C(=O)OCC(=O)c2ccc3c(c2)NC(=O)CO3)c1CC was read as VDR inh 10%.
For O=C(CSc1nccc(=O)[nH]1)N1CCN(c2ccccc2)CC1 the results were VDR inh inconclusive.
For Nc1ccc(CCn2ccnc2)cc1 the results were VDR inh -11%.
`C[C@]12C(=O)N(c3ccc(Br)cc3)C(=O)N1[C@H]1c3ccccc3OC[C@@H]1[C@H]2c1ccccc1` gave VDR inh -10%.
`CC1CCN(S(=O)(=O)N2CCCC(C(=O)NCc3ccc(F)cc3)C2)CC1` (stereo not drawn) gave VDR inh 79µM*.

Entries shown so far containing an aryl thioether with sulfur outside any ring, in the order listed:
For Cc1ccc(N/C(N)=N/c2nc(CSc3ccccn3)cc(=O)[nH]2)c(C)c1 the results were VDR inh 9%.
For Cc1cc(CSc2ccccc2)ccc1NC(=O)c1ccc(C)c([N+](=O)[O-])c1 the results were VDR inh 0%.
Screening Cn1c(CCNS(=O)(=O)c2ccccc2)nnc1SCc1cccnc1 returned VDR inh 1%.
CCOC(=O)CSc1nc(N)c(C(=O)Nc2ccc(N(C)C)cc2)s1 was read as VDR inh 10%.
Screening CCC(=O)Nc1nnc(SCC(=O)Nc2ccc(F)cc2)s1 returned VDR inh 19%.
Cc1ccccc1CSc1nnc(-c2ccccc2)c(=O)[nH]1 was read as VDR inh 16%.
Screening CCC(Sc1nc(C)cc(C)n1)C(=O)Nc1cc(C)on1 (stereo not drawn) returned VDR inh 10%.
Screening Nn1c(SCC(=O)NC2CCCCCC2)nnc1C(F)(F)F returned VDR inh 6%.
For CCc1ccccc1NC(=O)CSc1nnc2ccc3ccccc3n12 the results were VDR inh 9%.
`CC(C)c1c(O)nc(SCCOc2ccc(Cl)cc2)[nH]c1=O` gave VDR inh -5%.
Screening CCCCn1c2ccccc2c2nnc(SCC(=O)Nc3ccc(NC(C)=O)cc3)nc21 returned VDR inh -18%.
For O=C(CSc1nccc(=O)[nH]1)N1CCN(c2ccccc2)CC1 the results were VDR inh inconclusive.
